SARS PLpro yeast: SARS-CoV PLP inhibition in yeast | Potency, µM (highest dose often 32.9 µM), for the others: top-dose activity, positive = growth rescue | S. cerevisiae expressing SARS-CoV PLpro, growth rescue; control for the full effect not named in the record | hit rate 0.19% among 330,000; further: 0% is about no effect; nearly all actives have a fitted effect of over 55% in size; growth read by luminescence after 48 h
Lassa entry inh: inhibitors of Lassa virus binding or cell entry; Lassa virus pseudotype entry inhibition, cell reporter; control for the full effect not named in the record; Potency, µM (highest dose often 37.9 µM), without a hit: at the highest dose activity change, negative = inhibition, hits mostly inhibitors; hit rate 1.2% among 300,000; AID 540256; active means well fitted inhibition curve with a large enough effect; inconclusive means small, poorly fitted or top-dose-only effect, or effect the other way; inactive means flat fitted curve, though single readings scatter; tested in HEK293 cells; further: on the % scale 0 is the no-effect control and ±100 the full control effect; nearly all actives have a fitted effect of over 50% in size; luciferase read-out
Marburg entry inh: inhibitors of Marburg virus binding or cell entry | hit rate 1.8% among 300,000 | Potency, µM (titrated, usually from 37.8 µM), inactives show top-dose activity change, negative = inhibition, most hits filed as inhibitors | Marburg virus pseudotyped entry inhibition, cell reporter; control for the full effect not named in the record; about a third of the inactives were read at about 46 µM; active = well fitted inhibition curve with a large enough effect; inconclusive = small, poorly fitted or top-dose-only effect, or effect the other way; inactive = flat fitted curve, though single readings scatter; tested in HEK293 cells; about a fifth of its hits are not listed in these tables; further: on the % scale 0 is the no-effect control and ±100 the full control effect; luciferase read-out
NS1 inh: influenza NS1 inhibition | AID 2326 | hit rate 0.4% among 270,000 | S. cerevisiae slowed by influenza A NS1, growth recovery by OD600 | Potency, µM (titrated, usually from 46.1 µM), without a hit: top-dose activity, positive = more growth; further: actives are rising curves; nearly all actives have a fitted effect of over 50% in size
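Growth recovery, yeast-based: influenza A NS1 expressed in S. cerevisiae causes slow growth, and suppressors are detected by OD600. The parent strain without NS1 is used as positive control.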
Cruzain noTriton: inhibitors of Trypanosoma cruzi cruzain without detergent; Potency, µM, inactives show max response, negative = inhibition, hits mostly inhibitors; purified cruzain, Z-FR-AMC fluorescence, no detergent; P25779; hit rate 2.3% among 200,000; active means well fitted curve in the direction sought with a large enough effect; inconclusive means small, poorly fitted or top-dose-only effect, or another doubt; inactive means no such curve, though single readings can be large; an effect the other way counts as inactive or inconclusive;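 further: plate controls were enzyme without inhibitor for no effect and buffer without enzyme for full effect; nearly all actives have a fitted effect of over 40% in size; top concentration of the series not given in the record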
Target sequence (P25779 123-467 limits assumed): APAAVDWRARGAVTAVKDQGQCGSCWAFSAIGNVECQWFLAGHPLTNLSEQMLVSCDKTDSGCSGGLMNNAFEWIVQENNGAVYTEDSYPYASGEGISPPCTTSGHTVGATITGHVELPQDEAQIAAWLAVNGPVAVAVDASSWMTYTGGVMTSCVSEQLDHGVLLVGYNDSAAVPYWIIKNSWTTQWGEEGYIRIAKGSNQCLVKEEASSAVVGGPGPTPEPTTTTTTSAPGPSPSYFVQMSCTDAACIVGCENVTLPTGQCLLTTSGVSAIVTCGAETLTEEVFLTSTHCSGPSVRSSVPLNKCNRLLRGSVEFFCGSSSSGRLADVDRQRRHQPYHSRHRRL
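Purified cruzain at 1.5 nM, pre-incubated 15 min with compound at room temperature in 100 mM sodium acetate pH 5.5, 5 mM DTT, 0.00005% Triton X-100. Reaction started with 2 uM Z-FR-AMC; AMC fluorescence increase over 60 s gives rate.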
RE007 growth inh: less growth of the S. pombe RE007 Vpr strain | Potency, µM (doses to about 92.2 µM), inactives show at the top dose activity change, negative = less growth | S. pombe RE007 Vpr strain, BacTiter-Glo ATP luminescence, 24 h; control for the full effect not named in the record | AID 651644 | hit rate 0.21% among 360,000; active = well fitted falling curve with a large enough effect; inconclusive = small, poorly fitted or top-dose-only effect; inactive = no such curve, though single readings can be large or run the other way;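 further: on the % scale 0 is the no-effect control and ±100 the full control effect; nearly all actives have a fitted effect of over 50% in size; the assay follows cell death caused by Vpr and the record does not say whether a fall means rescue or toxicity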
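Fission yeast RE007 carrying one integrated HIV-1 vpr copy, seeded at OD 0.01 in PMG+AL medium with 23 nL pinned compound. Grown 24 h at 30 degrees; viability read by BacTiter-Glo luminescence after 5 min.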
Cruzain Triton: inhibitors of Trypanosoma cruzi cruzain with detergent; hit rate 0.43% among 200,000; purified cruzain, Z-FR-AMC fluorescence, 0.01% Triton; P25779; Potency, µM, for inactives: max response, negative = inhibition, hits mostly inhibitors; active means well fitted curve in the direction sought with a large enough effect; inconclusive means small, poorly fitted or top-dose-only effect, or another doubt; inactive means no such curve, though single readings can be large; an effect the other way counts as inactive or inconclusive;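 further: plate controls were neutral wells for no effect and buffer without enzyme for full effect; nearly all actives have a fitted effect of over 40% in size; top concentration of the series not given in the record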
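Enzyme 1.5 nM, Z-FR-AMC 2 uM, NaOAc 100 mM pH 5.5, DTT 5 mM, Triton X-100 0.01%; 15 min RT compound preincubation; kinetic ex360/em450, 60 s delta.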
2A StopGo: lowers the luciferase signal of an FMDV 2A StopGo reporter | hit rate 1.2% among 410,000 | human cells with a luciferase reporter of 2A StopGo recoding; control for the full effect not named in the record | Potency, µM (highest dose often 57.9 µM), for inactives: at the top dose signal change, negative = less light; active = well fitted falling curve with a large enough effect; inconclusive = small, poorly fitted or top-dose-only effect; inactive = no such curve, though single readings can be large or run the other way; tested in HEK293T cells; further: on the % scale 0 is the no-effect control and ±100 the full control effect; nearly all actives have a fitted effect of over 45% in size; luciferase light after 4 h
Starred values were filed as active, the others as inactive; ? = inconclusive; nt = no result given; & = joins results of further samples; [ ] = dose if it differs, or a comment. Unless noted, the call rests on the fitted dose curve; in most records, active means well fitted rising curve with a large enough effect; inconclusive means small, poorly fitted or top-dose-only effect; inactive means no such curve, though single readings can be large or run the other way. Potency means the concentration at half of the fitted maximal effect.

SMILES	SARS PLpro yeast	Lassa entry inh	Marburg entry inh	NS1 inh	Cruzain noTriton	RE007 growth inh	Cruzain Triton	2A StopGo
CC(C)Cc1ccc(S(=O)(=O)Nc2cccnc2)cc1	-12%	nt	nt	12%	nt	7%	nt	-10%
CCOC(=O)CC(NC(=O)Cc1ccccc1)c1ccccc1Cl (stereo unspecified)	-2%	?	?	3%	-8%	1%	1.5%	48%[activator]
COc1ccc(OCCNC(=O)C(Cc2c[nH]c3ccccc23)NC(C)=O)cc1 (stereo unspecified)	-1%	-20%[46.1 µM]	1%[46.1 µM]	nt	nt	8%	nt	-19%
O=C(O)c1cccc(CSc2nnc(-c3cccnc3)o2)c1	5%	nt	nt	10%	nt	4%	nt	14%
CCOc1ccc(C2C(C(=O)Nc3ccccc3)=C(C)Nc3nc(SCc4cccc(OC)c4)nn32)cc1 (stereo unspecified)	nt	?	nt	nt	-5%	nt	1.7%	-21%
CCc1ccc(-c2cc3c(N4CCN(c5ccccc5)CC4)nccn3n2)cc1	nt	21%[46.1 µM]	?	nt	-5%	nt	-5.2%	15%
c1ccc2sc(-c3ccncc3)nc2c1	-1%	26%[46.1 µM]	?	-8%	nt	2%	nt	15%
CCCCCCCNC(=O)c1ccc(N2CCC3(CC2)OCCO3)c([N+](=O)[O-])c1	-5%	-10%	-12%	-8%	?	0%	-8.7%	0%
Cc1ccccc1Nc1nn2c(=O)c3ccc(C(=O)NCCc4ccc(Cl)cc4)cc3nc2s1	nt	13%[46.1 µM]	nt	nt	-26%	nt	-5.6%	-26%
Cc1ccc(C)c(Cn2c(=O)n(CCc3ccccc3)c(=O)c3c(C)c(C)sc32)c1	nt	-8%[46.1 µM]	-5%[46.1 µM]	nt	-9%	nt	1.7%	-4%
COc1ccc(S(=O)(=O)N2CCN(C(=S)NCC3CCCO3)CC2)cc1OC (stereo unspecified)	-2%	21%[46.1 µM]	15%[46.1 µM]	-2%	nt	-7%	nt	-15%
CCC(=O)c1c[nH]c(C(=O)N2CCN(c3ccccc3)CC2)c1	0%	nt	-5%[46.1 µM]	1%	nt	-7%	nt	7%
Cc1cccc(CN2CCN(Cc3ccc(-n4cccn4)cc3)CC2CCO)n1 (stereo unspecified)	1%	nt	nt	2%	nt	-1%	nt	-25%
O=c1cc(N2CCOCC2)[nH]c(=O)n1Cc1ccc(F)cc1	1%	nt	nt	-3%	3%	-12%	-0.1%	0%
CSc1c(CC(=O)Nc2ccccc2C(F)(F)F)n(Cc2ccccc2)c2ccccc12	7%	1%	?	2%	?	4%	-4.2%	-20%
CCOC(=O)Nc1ccc(OC)c([N+](=O)[O-])c1	0%	19%[46.1 µM]	-9%[46.1 µM]	nt	nt	-5%	nt	6%
CC(C)(C)NC(=O)CN1CCC(NC(=O)C23CC4CC(CC(C4)C2)C3)CC1	1%	12%[46.1 µM]	?	nt	nt	3%	nt	-11%
CCCOc1cccc(-c2nnc(N)s2)c1	-6%	-10%	?	-134%	-6%	-2%	-0.4%	46%[activator]
CCOC(=O)c1c(NC(=O)CSc2nnc(N)s2)sc(C)c1-c1ccc(C)cc1	-97%	nt	nt	17%	14%	-3%	-11%	?
Cc1cc(C)cc(Nc2nc3ccccc3nc2-n2nc(C)cc2C)c1	nt	29%[46.1 µM]	3%[46.1 µM]	nt	2%	nt	-0.8%	-1%
COc1ccc(CNC(=O)Cc2c(C)c3ccc(O)cc3oc2=O)cc1	nt	12%[46.1 µM]	19%[46.1 µM]	nt	25µM*	nt	-23%	17%
COc1ccc(/C=C2\NC(=S)N(CC3CCCO3)C2=O)c(OC)c1 (stereo unspecified)	11%	1%	-18%	-10%	-6%	7%	-7.6%	nt
Cc1ccc(NC(=O)CCn2cnc3ccccc3c2=O)c(C)c1	-1%	?	-6%	0%	nt	1%	nt	-8%
CC(OC(=O)c1cccc(-n2cnnn2)c1)C(=O)Nc1cccc(Cl)c1 (stereo unspecified)	1%	?	-11%	nt	nt	?	nt	-1%
CCC(C)NC(=O)CO/N=C/c1ccc(C(=O)OC)cc1 (stereo unspecified)	-1%	-2%	?	9%	-3%	7%	-1.4%	-17%

Continued:
SMILES	SARS PLpro yeast	Lassa entry inh	Marburg entry inh	NS1 inh	Cruzain noTriton	RE007 growth inh	Cruzain Triton	2A StopGo
COc1ccc(/C=C2\SC(=O)N(CC(=O)NN3CCN(C)CC3)C2=O)cc1OC	-1%	10%[46.1 µM]	9%[46.1 µM]	-6%	nt	3%	nt	-9%
COC(=O)/C=C/c1ccsc1NC(C)=O	20%	3%	4%	7%	10%	12%	-2.8%	9%
COc1ccc(-c2cnc(C)o2)cc1S(=O)(=O)Nc1cccc(C(F)(F)F)c1	nt	17%[46.1 µM]	nt	nt	15%	nt	-9.1%	83%[activator]
c1ccc2c(N3CCCC3)nc(-c3ccncc3)nc2c1	-12%	-5%	?	-96%	1%	?	-2.1%	14µM*
Cc1cc(Cl)ccc1OC(C)C(=O)N1CCCN(C(=O)C(C)Oc2ccc(Cl)cc2C)CC1 (stereo unspecified)	-18%	?	?	14%	?	31%	-6.9%	28µM*
CN(C)c1ccc(-c2nc3ccccn3c2/N=C/c2ccc(Br)cc2)cc1	nt	7.1µM*	?	28%	-12%	?	2.0%	13µM*
CC1CCC(NC(=O)Cn2ncc3ccccc32)CC1 (stereo unspecified)	-3%	nt	-1%	1%	8%	0%	-1.7%	43%[activator]
COCCn1c(C)cc(C(=O)CSc2nc3nc(C)cc(C)n3n2)c1C	7%	?	7%	8%	6%	1%	-1.4%	-23%
O=C(/C=C/c1ccc2ccccc2n1)c1cc(Cl)ccc1O	-5%	-20%[46.1 µM]	3%[46.1 µM]	11%	nt	16%	nt	40%[activator]
COc1ccc(-c2nc(CSc3nnc(C)n4c3cc3sccc34)c(C)o2)cc1	nt	12%[46.1 µM]	nt	nt	40%	nt	4.2%	10%
OCCNC(=S)Nc1ccc(Cl)c(Cl)c1	6%	4%	24%	11%	-9%	21%	-2.1%	13%
OC(CN1CC=C(c2ccccc2)CC1)c1ccccc1 (stereo unspecified)	13%	12%	-2%[46.1 µM]	21%	nt	-9%	nt	-3%
O=S(=O)(NCc1ccccc1Br)c1cccs1	3%	12%	?	-11%	-16%	-5%	-1.7%	91%[activator]
C=CCN1C(=O)NC(c2ccccc2)(C(F)(F)F)S/C1=C(\C#N)c1nnc(N2CCOCC2)n1-c1ccccc1 (stereo unspecified)	-9%	-29%	-28%	-5%	?	11%	-5.1%	32µM*
CCC(CC)C(=O)N1CCc2cc(OC)c(OC)cc2C1COc1ccc2c(C)cc(=O)oc2c1 (stereo unspecified)	nt	1%[46.1 µM]	13%[46.1 µM]	nt	-12%	nt	3.8%	?
Cc1ccc(OS(=O)(=O)c2ccc(-c3csc(C)n3)s2)c(C)c1	-1%	-8%	?	-2%	nt	-5%	nt	?
COCCNCc1ccc(C(C)C)cc1	1%	nt	nt	7%	nt	-13%	nt	-4%
Cc1ccc(N(Cc2cc3ccccc3[nH]c2=O)S(=O)(=O)c2ccccc2)cc1	13%	-9%	?	15%	1%	4%	-9.9%	-16%
CN(C(=O)CN(CCO)CC(=O)N(C)C(C)(C)Cc1ccccc1)C(C)(C)Cc1ccccc1	nt	nt	nt	nt	38%&4%	-8%[18.4 µM]	4.2%&2.0%	-18%&-28%
COc1ccc(CC(=O)O/N=C(\N)Cc2cccc3ccccc23)cc1OC	-21%	0%	10%	1%	17%	-2%	-5.0%	-16%
CCN(C(=O)C1CCN(S(=O)(=O)c2cccc3nonc23)CC1)c1ccccc1	-6%	nt	nt	1%	3%	1%	-0.1%	-19%
CSc1nc(N2CCOCC2)c2c3c(sc2n1)CCCC3	-2%	-8%	1%	-58%	-6%	7%	-8.0%	-30%
COc1cccc(CNc2nccn(-c3ccc(OC)c(OC)c3)c2=O)c1	nt	11%[46.1 µM]	nt	nt	5%	nt	-2.1%	-13%
COC(=O)c1ccc(CN2CCc3ccccc32)cc1	-6%	?	1%	9%	nt	11%	nt	-28%
CC(=O)c1cccc(Nc2cc(C)nc3c(C)cc(C)cc23)c1	21%	-11%	?	-2%	2%	3%	-3.6%	-19%

(listing goes on)
SMILES	SARS PLpro yeast	Lassa entry inh	Marburg entry inh	NS1 inh	Cruzain noTriton	RE007 growth inh	Cruzain Triton	2A StopGo
O=C(NC(N1CCOCC1)C(Cl)(Cl)Cl)c1ccc(Br)cc1 (stereo unspecified)	-2%	?	-15%[46.1 µM]	nt	nt	1%	nt	0%
Cc1cccn2c(=O)cc(COc3cccc(NC(=O)c4cccc(Cl)c4)c3)nc12	nt	-2%[46.1 µM]	nt	nt	-10%	nt	-0.8%	-10%
CCOC(=O)N1CCN(C(=O)c2ccc(N(Cc3ccc(C)cc3)S(C)(=O)=O)cc2)CC1	10%	?	16%	-5%	?	10%	-4.6%	0%
O=C(Cc1ccccc1)Nc1ccc(C(=O)O)cc1	9%	-20%[14.3 µM]	-3%	-1%	21%	-18%	0.4%	20%
CN(C)CCCNc1cc(C(C)(C)C)nc2c(-c3ccc(Cl)cc3)cnn12	-1%	?	?	9%	nt	11%	nt	1%
COc1ccc(C2=CC(=O)OC(C)(c3ccccc3)O2)cc1 (stereo unspecified)	13%	?	-18%	-7%	-4%	9%	-9.6%	-12%
CN(C)c1cccc(C(=O)Nc2ccc3nc4n(c(=O)c3c2)CCCCC4)c1	-5%	nt	nt	-14%	-3%	4%	-6.5%	0%
CC(C)(Oc1ccc(Cl)cc1)C(=O)OCC(=O)NCCc1ccccc1	2%	-11%[46.1 µM]	8%[46.1 µM]	-41%	nt	20%	nt	-8%
Cc1cc(O)ccc1N/C=C/c1onc(C)c1[N+](=O)[O-]	-2%	?	?	nt	nt	-9%	nt	0%
CCOc1cc(C2NCc3ccccc3-n3cccc32)ccc1O (stereo unspecified)	4%	-14%	?	0%	-25%	-12%	-17%	-7%
CCOC(=O)CN1C(=O)NC(C)(c2ccc(OC(F)F)cc2)C1=O (stereo unspecified)	-3%	16%	-3%	5%	-4%	2%	-1.5%	-28%
C/C(CC(=O)Nc1cccc2c1CCCC2)=N\NC(=O)c1ccccc1N	4%	17%	14%	13%	-7%	-13%	-3.1%	68%[activator]
Nc1nnnn1/N=C/c1cccc(Oc2ccccc2)c1	-3%	0%	-1%	-11%	-3%	7%	6.1%	6%
